ClpP mod = qHTS Assay for Activators of ClpP; purified B. subtilis ClpP, FRET peptide cleavage, 20 min; Potency, µM (series often up to 57.5 µM), for the others: top-dose activity change, negative = active; ATP-dependent Clp protease proteolytic subunit (Bacillus subtilis (strain 168)), P80244; 340,000 tested, 1.9% active; active = well fitted falling curve with a large enough effect; inconclusive = small, poorly fitted or top-dose-only effect; inactive = no such curve, though single readings can be large or run the other way; note: potency is the fitted concentration of half-maximal effect; the source files actives as falling curves though it sought activators and does not explain the sign; nearly all actives have a fitted effect of over 65% in size; many hits overshoot -100%
Target sequence (P80244 whole entry, looked up): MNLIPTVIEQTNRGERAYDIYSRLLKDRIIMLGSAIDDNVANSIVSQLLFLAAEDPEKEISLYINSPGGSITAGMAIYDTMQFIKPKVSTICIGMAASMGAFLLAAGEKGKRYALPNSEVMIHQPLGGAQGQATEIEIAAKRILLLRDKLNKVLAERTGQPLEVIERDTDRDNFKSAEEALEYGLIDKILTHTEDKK
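ClpP 10 microg/mL final, pH 8 Tris/KCl buffer with BSA, glycerol, Tween-20; compound pinned in; FRET-FV substrate; RT 20 min; Ex320/Em430; ΔFRET vs ADEP 5.8 microM, DMSO, no enzyme.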
gsp ag = gsp mutant agonism; gsp mutant cells, cAMP HTRF, 30 min; control for the full effect not named in the record; 340,000 tested, 0.13% active; Potency, µM (top dose mostly 76.9 µM), without a hit: at the top dose activation (cAMP increase), usual class: activators; active = well fitted activation curve with a large enough effect; inconclusive = small, poorly fitted or top-dose-only effect, or another doubt; inactive = no such curve, though single readings can be large or run the other way; cell line not stated here;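 note: phosphodiesterase inhibitor Ro 20-1724 added with compounds to block cAMP breakdown; potency is the fitted concentration of half-maximal effect; nearly all actives have a fitted effect of over 60% in size; about a fifth of the inactives were tested at one dose only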
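Cells stably selected in G418 were plated at 2000/well, grown 16-24 hr, then given compounds in DMSO with the PDE inhibitor […] (300 uM solution added) for 30 min at 37C; cAMP was read by HTRF.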
TRPML1 ag = human mucolipin-1 channel agonism | Q9GZU1 | TRPML1-expressing cells, Ca2+ dye fluorescence, FDSS; host cell line not named in the record; reference of the full effect not given here | 410,000 tested, 0.12% active | AID 624414 | activation, % (test concentration not listed); in the data active = activation above about 50%; inconclusive = about 30% to 50%; inactive = below about 30%; note: 0% is about no effect; the text of the record puts the active cut at 80%
Target sequence (Q9GZU1 whole entry, looked up): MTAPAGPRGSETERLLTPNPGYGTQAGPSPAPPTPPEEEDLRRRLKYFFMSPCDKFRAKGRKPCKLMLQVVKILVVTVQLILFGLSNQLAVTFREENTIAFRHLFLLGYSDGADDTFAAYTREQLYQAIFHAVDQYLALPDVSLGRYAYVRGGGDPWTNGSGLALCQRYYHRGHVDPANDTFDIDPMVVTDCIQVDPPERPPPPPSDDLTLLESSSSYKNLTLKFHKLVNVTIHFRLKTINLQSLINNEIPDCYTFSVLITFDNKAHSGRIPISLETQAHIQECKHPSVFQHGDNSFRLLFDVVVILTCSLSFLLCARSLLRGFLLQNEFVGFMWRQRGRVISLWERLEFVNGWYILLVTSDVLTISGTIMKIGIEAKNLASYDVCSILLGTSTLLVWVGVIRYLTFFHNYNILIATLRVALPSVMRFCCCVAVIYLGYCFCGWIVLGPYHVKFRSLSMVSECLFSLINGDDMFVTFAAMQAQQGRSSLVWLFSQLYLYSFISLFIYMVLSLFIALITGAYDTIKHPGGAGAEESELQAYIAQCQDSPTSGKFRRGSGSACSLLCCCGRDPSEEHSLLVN
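Agonist activity was taken from a 110 s kinetic Ca2+ dye read on the FDSS after pinning compounds onto TRPML1-DL cells. The cells were seeded at 1,500/well with Tet inducer, incubated about 16 h, then dye-loaded at room temperature.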
Menin-MLL FL inh = displaces fluorescein MLL peptide from human menin | Fluorescence polarization, fluorescein-MLL peptide displacement from menin | FP activity change, % at 61.4 µM | 290,000 tested, under 10 active | AID 1766; inconclusive = falling polarisation curve, or a change in total fluorescence; inactive = total fluorescence flat and polarisation flat or rising; no compound was filed as active; the % refers to the polarisation; negative = inhibition;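 note: % of control where 0% means no effect; inhibitors lower the polarisation; unlabelled MLL peptide was the positive control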
gsp antagonist = antagonists of gsp mutant (McCune-Albright syndrome); gsp-mutant cells, cAMP HTRF, 30 min; control for the full effect not named in the record; Potency, µM (highest dose often 76.9 µM), for inactives: at the highest dose activity change, negative = inhibition, actives largely listed as inhibitors; 340,000 tested, 0.4% active; active = falling curve of any shape with a large fitted effect; inconclusive = falling curve, mostly with a smaller effect; inactive = flat or rising curve; cell line not stated here;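 note: intracellular cAMP measured with PDE inhibitor Ro 20-1724 present during compound exposure; potency is the fitted concentration of half-maximal effect; % is set by controls: 0 for no effect and ±100 for the full control effect; nearly all actives have a fitted effect of over 65% in size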
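Measurement of cellular cAMP by homogeneous time-resolved fluorescence following a 30 min compound exposure at 37C. The PDE inhibitor […] was present throughout; the assay buffer was DPBS with 0.05% BSA and 0.005% Tween 20.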
TRPML1 blocker = blocks the human TRPML1 channel; TRPML1-inducible cells, Ca2+ dye fluorescence, FDSS; hits give low values; inhibition of EC80 agonist-evoked calcium signal; activity change, negative = inhibition, % (concentration not given with the values); 390,000 tested, 0.02% active; AID 624415; in the data active means activity change below about -50%; inconclusive means about -30% to -50%; inactive means above about -30%;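 note: stimulus is agonist 54-4 at its EC80 concentration; % is set by controls: 0 for no effect and ±100 for the full control effect; compound concentration not given in the record; the text of the record puts the active cut at -80%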
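Calcium fluorescence in TRPML1-DL cells induced overnight with Tet: a 110 s read after compound pin addition, then a 110 s antagonist read after challenge with 54-4 at 4 uM final (EC80).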
An asterisk follows results filed as active; ? = inconclusive; · = not tested or not shown; & = joins results of further samples; [ ] = dose if it differs, or a comment.

The opening two compounds, ahead of the listing:
Values run as follows: ClpP mod | gsp ag | TRPML1 ag | Menin-MLL FL inh | gsp antagonist | TRPML1 blocker
- COc1ccc(S(=O)(=O)N2CCC(C(=O)NC3CC(C)(C)NC(C)(C)C3)CC2)cc1
 : · | 20% | -0.7 | · | 6% | 20
- CC1CC(NC(=O)Cc2ccc(Br)cc2)CC(C)(C)C1 (stereo not drawn)
 : -3.9% | 1% | 2.0 | -1.8 | -19% | 22

All compounds of this part (from the top)
Values run as follows: ClpP mod | gsp ag | TRPML1 ag | Menin-MLL FL inh | gsp antagonist | TRPML1 blocker
- COc1ccc(S(=O)(=O)N2CCC(C(=O)NC3CC(C)(C)NC(C)(C)C3)CC2)cc1
 : · | 20% | -0.7 | · | 6% | 20
- CC1CC(NC(=O)Cc2ccc(Br)cc2)CC(C)(C)C1 (stereo not drawn)
 : -3.9% | 1% | 2.0 | -1.8 | -19% | 22
- O=C(COc1ccc(-c2ccccc2)cc1)Nc1cccnc1
 : -0.1% | 1% | 0.7 | · | ? | 16
- COc1ccc(C(=O)OCC(=O)c2ccc[nH]2)c(OC)c1
 : · | 11% | -0.4 | · | 8% | -3
- Cc1ccc(C(=O)NC(=S)Nc2ccc(Oc3ccc(Cl)cc3)cc2)cc1
 : 1.0% | -22% | 1.3 | -3.1 | -10% | -1
- c1ccc(-c2cn(-c3ccccc3)c3ncnc(N4CCN(c5ccccc5)CC4)c23)cc1
 : -2.3% | · | 16 | · | · | -1
- CN(C)c1ccc(Nc2nc(N)c3ccccc3n2)cc1
 : · | ? | -0.5 | -0.5 | ? | 4
- O=[N+]([O-])c1ccc(P(=O)(Cc2ccccc2)c2ccccc2O)cc1 (stereo not drawn)
 : · | -32%[inhibitor] | 1.9 | -1.8 | -15% | -1
- CS(=O)(=O)N1CCn2c1nc1ccccc12
 : · | 7%[15.4 µM] | -0.3 | 0.9 | · | 17
- O=C(NC(=S)Nc1ccc2oc(-c3ccncc3)nc2c1)c1ccccc1F
 : · | 0% | 1.6 | 2.0 | 32µM* | 6
- COc1ccc(Cn2c(CCCO)nc3ccccc32)cc1OC
 : -9.0% | -67% | -0.6 | -5.5 | 5% | -2
- Cc1ccc(/C=C/C(=O)CCC(=O)O)cc1
 : · | 6% | -0.1 | -5.8 | -12% | 33
- Cc1ccc(C(=O)NNC(=O)Cc2nc3nc(C)cc(C)n3n2)cc1
 : -5.3% | 27% | 0.3 | · | -1% | 25
- COC(=O)C1=C(C)N(CC2CC2)C(=NCc2cc(OC)c(OC)c(OC)c2)N[C@H]1c1ccccc1
 : -1.0% | -25% | 0.3 | -1.4&2.7 | 5% | 14
- COc1ccc(-c2cc(N3CCCC3)n3ncnc3n2)cc1
 : -21% | 6% | -0.2 | 6.2 | -19% | 2
- C/C(=N\NC(=O)Cn1ccc(C(F)(F)F)n1)c1ccc(N2CCOCC2)cc1
 : · | 0%[15.4 µM] | 0.8 | 2.2 | -7% | -26
- COc1ccccc1-c1ncnn1-c1sc2c(c1C#N)CCCCC2
 : -1.0% | · | -0.3 | · | · | 11
- COCCNC(=O)/C(C#N)=C\c1ccc(CNS(=O)(=O)c2ccccc2)o1
 : · | 2%[15.4 µM] | 0.0 | 6.1 | 0% | 12
- COCCN(C(=O)c1cc(-c2ccc(F)cc2)nc2ccccc12)c1c(N)n(CC(C)C)c(=O)[nH]c1=O
 : -3.6% | 7% | 1.1 | · | 6% | -5
- CSCC[C@H](NC(=O)c1cccs1)c1nnc2ccccn12
 : -0.1% | 6% | 1.6 | · | -7% | -15

Fetched one by one from the entries so far, 4 records:
Values run as follows: ClpP mod | gsp ag | TRPML1 ag | Menin-MLL FL inh | gsp antagonist | TRPML1 blocker
- CS(=O)(=O)N1CCn2c1nc1ccccc12
 : · | 7%[15.4 µM] | -0.3 | 0.9 | · | 17
- O=C(COc1ccc(-c2ccccc2)cc1)Nc1cccnc1
 : -0.1% | 1% | 0.7 | · | ? | 16
- COc1ccc(-c2cc(N3CCCC3)n3ncnc3n2)cc1
 : -21% | 6% | -0.2 | 6.2 | -19% | 2
- COCCNC(=O)/C(C#N)=C\c1ccc(CNS(=O)(=O)c2ccccc2)o1
 : · | 2%[15.4 µM] | 0.0 | 6.1 | 0% | 12

Carrying on:
Values run as follows: ClpP mod | gsp ag | TRPML1 ag | Menin-MLL FL inh | gsp antagonist | TRPML1 blocker
- CCCCC(=O)NC1(C(F)(F)F)C(=O)Nc2c1c(=O)[nH]c(=O)n2Cc1ccco1 (stereo not drawn)
 : -6.5% | -3% | 2.6 | 3.6 | -1% | 15
- CC(C)Sc1oc(-c2ccco2)nc1S(=O)(=O)c1ccc(F)cc1
 : -5.5% | 4% | 2.7 | ? | -4% | -16
- COc1ccc(C(CNC(=O)/C=C/c2c(Cl)nc3ccccn23)N(C)C)cc1 (stereo not drawn)
 : · | 27%[15.4 µM] | -0.5 | -0.7 | -42% | 22
- COc1ccc(/C(C)=N\O)cc1OC
 : · | -15%[15.4 µM] | -0.1 | 3.6 | -8% | 7
- O=C(CC(C(=O)O)c1ccc(Cl)cc1)c1ccc(Br)cc1 (stereo not drawn)
 : -0.1% | -1%[15.4 µM] | -0.8 | 1.3 | -33% | 12
- CC(=O)c1cccc(OCC(=O)N(Cc2ccco2)c2c(N)n(Cc3ccccc3)c(=O)[nH]c2=O)c1
 : 0.4% | -21% | -0.4 | · | -4% | -2
- Cc1nc(N)sc1-c1csc(Nc2ccccn2)n1
 : -2.8% | 11% | -0.4 | -2.4 | -2% | 1
- Nc1nnc(Cc2c[nH]c3ccccc23)s1
 : -3.3% | -7% | -0.5 | 2.4 | 9% | 14
- COc1cccc(NC(=O)c2cccc(N3C(=O)C4CCC(C)CC4C3=O)c2)c1 (stereo not drawn)
 : · | -26% | -0.1 | 4.2 | -7% | 26
- CCN(CC)C1=N/C(=C\c2ccco2)C(=O)N1c1ccccc1
 : -3.5% | 4%[15.4 µM] | 0.9 | ? | -8% | -7
- COCC(C)NC(=O)Cn1c(SCc2ccccc2)nc2ccccc21 (stereo not drawn)
 : -4.1% | -9%[15.4 µM] | -0.4&-0.3 | -1.5 | -6% | -6
- COc1ccc(-c2cn3nc(N4CCCC(C(=O)Nc5ccc(C)c(C)c5)C4)sc3n2)cc1 (stereo not drawn)
 : -2.1% | · | 1.6 | · | · | 15
- Cc1cccc(NC(=O)CSCC(=O)Nc2cc(S(=O)(=O)N3CCOCC3)ccc2OC(C)C)c1
 : 0.2% | -20% | -0.5 | · | -24% | -5
- CN1C(=O)C2(c3ccccc31)N(c1ccccc1)C(=O)CS2(=O)=O (stereo not drawn)
 : -2.6% | · | 0.9 | · | · | 0
- COC1=C/C(=C/c2c(N)n3c(nc2=O)sc2cc(S(C)(=O)=O)ccc23)C=CC1=O
 : -1.2% | -6% | 0.1 | ? | ? | -4
- Cc1nc2ccc(NC(=O)c3ccc(N4C(=O)CCC4=O)cc3)cc2s1
 : · | 3%[15.4 µM] | -0.3 | -2.7 | 3% | 18
- O=C(CCNC(=O)c1ccc(Br)cc1)NCCCc1ccccc1
 : 0.6% | -1%[15.4 µM] | 0.1 | · | 9% | 0
- c1ccc(-c2noc(-c3ccccc3-c3ccccc3)n2)cc1
 : -15% | ? | 4.5 | 2.8 | 7% | 33
- CCN1CCOC(=O)C1CC(=O)Nc1ccc(Br)cc1 (stereo not drawn)
 : -3.6% | · | 1.4 | · | · | -18
- COc1ccc2c(c1)c(=O)c(C(=O)c1ccccc1)cn2Cc1ccc(C)cc1
 : -6.0% | -52%[inhibitor] | 0.6 | -1.1 | -1% | 1

Screens: PubChem, National Center for Advancing Translational Sciences (NCATS)
